From PubChem BioAssay
TRPML1 agonist: human mucolipin-1 channel agonism | AID 624414 | 0.12% of 410,000 active | TRPML1-expressing cells, Ca2+ dye fluorescence, FDSS; host cell line not named in the record; reference of the full effect not given here | activation, % (no concentration beside the values) | Q9GZU1; in the data active = activation above about 50%; inconclusive = about 30% to 50%; inactive = below about 30%; further: 0% is about no effect; the text of the record puts the active cut at 80%
Target sequence (Q9GZU1 whole entry, looked up): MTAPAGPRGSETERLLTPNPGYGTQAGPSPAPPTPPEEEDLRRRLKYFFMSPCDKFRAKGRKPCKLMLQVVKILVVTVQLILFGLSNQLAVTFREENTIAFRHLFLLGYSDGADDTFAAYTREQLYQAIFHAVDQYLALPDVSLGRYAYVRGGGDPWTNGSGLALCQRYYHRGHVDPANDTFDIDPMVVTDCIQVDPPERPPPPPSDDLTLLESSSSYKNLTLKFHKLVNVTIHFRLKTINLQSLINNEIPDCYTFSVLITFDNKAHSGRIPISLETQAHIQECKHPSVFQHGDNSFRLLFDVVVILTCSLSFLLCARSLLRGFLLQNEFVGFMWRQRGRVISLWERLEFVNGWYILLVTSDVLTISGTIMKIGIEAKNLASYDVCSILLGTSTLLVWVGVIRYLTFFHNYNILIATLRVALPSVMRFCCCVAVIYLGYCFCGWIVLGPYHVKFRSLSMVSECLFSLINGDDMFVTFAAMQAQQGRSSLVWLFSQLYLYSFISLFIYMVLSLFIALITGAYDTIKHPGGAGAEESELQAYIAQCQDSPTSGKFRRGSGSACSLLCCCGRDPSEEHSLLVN
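Calcium fluorescence on an FDSS kinetic reader gave the read-out. Tet-induced TRPML1-DL cells were plated overnight, dye-loaded (Ca8 with quencher, 45-90 min, room temperature, dark), then read 110 s after compound addition, and again 110 s after 4uM final 54-4 (EC80).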
PINK1 modulator: PINK1 expression modulation | PINK1 immunofluorescence, high-content cytometry, 24 h | Potency, µM (highest dose often 76.6 µM), for the others: top-dose activation (PINK1 increase), actives largely listed as activators | 0.2% of 410,000 active; active = well fitted activation curve with a large enough effect; inconclusive = small, poorly fitted or top-dose-only effect; inactive = flat fitted curve, though single readings scatter; cell line not stated here;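 further: potency means the concentration at half of the fitted maximal effect; % of control where 0% means no effect; nearly all actives have a fitted effect of over 65% in size; a mitochondrial uncoupler was the plate control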
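Readout is PINK1 immunofluorescence, quantified alongside mitochondrial, cell and nuclear markers by laser-scanning microplate cytometry. Cells from a stable line were exposed to compound titrations (5 concentrations) for 24 hours, with CCCP controls.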
* = called active by the depositor; ? = inconclusive.

#	canonical_smiles	TRPML1 agonist	PINK1 modulator
1	COc1cccc(OC)c1C(=O)Nc1cccc(-c2nc3cc(C)cc(C)c3o2)c1	0.0	1.1%
2	COc1ccc(CNC(=O)CCn2c(=O)c3cccn3c3ccc(F)cc32)cc1OC	2.9	0.7%
3	NS(=O)(=O)c1ccc(NC(=O)c2nc(S(=O)(=O)Cc3ccccc3F)ncc2Cl)cc1	-0.7	1.2%
4	CCc1cccc(C)c1NC(=O)Cn1ccn(-c2cccc(OC)c2)c(=O)c1=O	-0.3	0.8%
5	Cc1ccc2c(c1)c(=O)c(C(=O)c1ccncc1)cn2CC(=O)Nc1ccc(C(C)C)cc1	-0.8	9.9%
6	CC1=C(C(=O)Nc2ccc(C)cc2)C(c2ccccc2Cl)n2nnnc2N1 (stereo not drawn)	-0.5	0.0%
7	CCN1CCN(C(c2cccc(Cl)c2)c2c(O)cc(C)n(CCOC)c2=O)CC1 (stereo not drawn)	0.5	-0.7%
8	COc1ccccc1NC(=O)Cn1cc(C(=O)c2ccncc2)c(=O)c2cc(C)ccc21	-0.3	4.0%
9	COc1ccc(-c2c(C)nn3c(C(F)(F)F)cc(-c4ccc(Br)cc4)nc23)cc1	2.1	2.6%
10	Cc1ccc2nc(-c3cc(NC(=O)c4ccc5c(c4)OCCO5)ccc3Cl)oc2c1	3.3	0.6%
11	CCCCN1CC(c2nc3ccccc3n2CCCCOc2cc(C)ccc2C)CC1=O (stereo not drawn)	1.7	?
12	CCOC(=O)c1cc(S(=O)(=O)NCc2ccc(Cl)cc2)[nH]n1	2.5	-1.1%
13	CCOC(=O)c1ccc(NC(=O)CCCn2c(=O)c3cccn3c3cccnc32)cc1	-0.5	0.1%
14	CCOC(=O)c1cc(C)n(CC2CCC(C(=O)Nc3ccc(OC)c(OC)c3)CC2)c1C (stereo not drawn)	-0.1	1.2%
15	CCS(=O)(=O)N1CCc2cc(C(=O)Nc3ccc(OC)cc3OC)ccc21	-0.2	2.1%
16	CC(=O)N1CCc2cc(Br)cc(S(=O)(=O)N3CCN(c4cccc(C)c4)C(C)C3)c21 (stereo not drawn)	-0.8	-1.3%
17	CCOCCCn1c(=N)c(C(=O)NC2CCCCC2)cc2c(=O)n3ccccc3nc21	-0.5	-0.2%
18	Cn1c(=O)c2c(nc(SCC(=O)Nc3ccc(F)cc3)n2Cc2ccc(Cl)cc2)n(C)c1=O	0.1	0.9%
19	CCS(=O)(=O)N1CCc2cc(C(=O)Nc3cccc(Cl)c3C)ccc21	-0.5	-0.6%
20	CCn1c(=O)n(-c2ccc(F)cc2)c(=O)c2sc3ccccc3c21	-0.4	0.2%

Five records picked at random from the list so far:
#	canonical_smiles	TRPML1 agonist	PINK1 modulator
11	CCCCN1CC(c2nc3ccccc3n2CCCCOc2cc(C)ccc2C)CC1=O (stereo not drawn)	1.7	?
18	Cn1c(=O)c2c(nc(SCC(=O)Nc3ccc(F)cc3)n2Cc2ccc(Cl)cc2)n(C)c1=O	0.1	0.9%
16	CC(=O)N1CCc2cc(Br)cc(S(=O)(=O)N3CCN(c4cccc(C)c4)C(C)C3)c21 (stereo not drawn)	-0.8	-1.3%
12	CCOC(=O)c1cc(S(=O)(=O)NCc2ccc(Cl)cc2)[nH]n1	2.5	-1.1%
13	CCOC(=O)c1ccc(NC(=O)CCCn2c(=O)c3cccn3c3cccnc32)cc1	-0.5	0.1%

The list continues.
#	canonical_smiles	TRPML1 agonist	PINK1 modulator
21	CCOc1ccccc1NC(=O)C(C)n1nnc2sc3c(c2c1=O)CCCC3 (stereo not drawn)	2.5	1.9%
22	CCOc1ccc(C(=O)Nc2ccc3nc(SCc4ccccc4)sc3c2)cc1	-0.9	4.6%
23	Cc1ccc(C)n1-c1nnc(N2CCCC(C(=O)NCc3ccc(F)cc3)C2)s1 (stereo not drawn)	0.8	0.7%
24	Cc1ccc(-n2nc3ccc(NC(=O)COc4ccccc4)cc3n2)cc1Cl	0.7	0.2%
25	Cn1nc(-c2ccc(Cl)cc2)nc2c(=O)n(C)c(=O)nc1-2	-0.4	7.4%
26	COc1ccc(C(=O)Cn2c(=O)c(-c3cc(C)ccc3NC(C)=O)nc3ccccc32)cc1	1.6	-0.2%
27	CCc1cccc(C)c1NC(=O)CSc1nnc(CC)n2c1cc1occc12	-0.5	-0.6%
28	Cc1cccc(NC(=O)c2oc3ccccc3c2NC(=O)Cc2coc3c(C)c(C)ccc23)c1	0.6	0.3%
29	COc1cc(-c2cc3n(C)c(C)c(CCC(=O)Nc4ccc(F)cc4)c(=O)n3n2)cc(OC)c1OC	-1.0	-0.5%
30	CC(=O)c1cccc(NC(=O)C(C)OC(=O)c2ccc(S(C)(=O)=O)c([N+](=O)[O-])c2)c1 (stereo not drawn)	-1.0	-0.9%
31	CCCc1cc(=O)n2[nH]c(NC(=O)c3ccccc3Cl)nc2n1	0.4	2.2%
32	NC(=O)c1nc(Nc2ccccc2)sc1NC(=O)c1c(F)cccc1F	-0.2	1.9%
33	Cc1ccc(-n2cc(-c3ccccc3)nc2S(=O)(=O)CC(=O)Nc2ccc(F)cc2)cc1	0.5	0.8%
34	Cc1nn2c(=O)cc(COC(=O)c3cccs3)nc2s1	-0.3	1.2%
35	CCOc1ccccc1NC(=O)Cn1cc(C(=O)c2cccc(OC)c2)c(=O)c2ccc(C)nc21	2.3	26%
36	O=C(Cn1cc(SCc2ccc(F)cc2)c2ccccc21)N1CCCCCC1	1.0	8.9%
37	COc1ccc(-c2nc(Cn3c(=O)cc(C)c4c(C)nn(-c5ccccc5)c43)c(C)o2)c(OC)c1	1.5	1.4%
38	CC(C)NC(=O)c1ccc(-n2c(-c3ccccc3)cc3c2CCCCC3)cc1	0.8	-0.1%
39	Cc1cc(C)c(S(=O)(=O)NCCc2csc3nc(-c4ccc(Cl)cc4)nn23)c(C)c1	1.0	0.4%
40	Cc1ccc(-c2cnc(C3CC3)o2)cc1S(=O)(=O)Nc1cccc(C)c1C	-0.7	2.3%
41	CCOC(=O)c1cc(-c2ccc(OC)cc2)n(CCC(=O)Nc2nc3ccc(OCC)cc3s2)c1C	3.7	2.5%
42	COCCNC(=O)c1ccc2c(c1)ncn2-c1cc(C)ccc1OC	0.1	0.1%
43	COc1cccc(N2CCN(c3ncnc4onc(-c5ccc(Cl)cc5)c34)CC2)c1	-0.9	-0.7%
44	COc1ccc(-c2cc(C(=O)NCCc3ccc(OC)c(OC)c3)c3c(-c4ccc(F)cc4)[nH]nc3n2)cc1	2.2	1.7%
45	O=C(NCc1ccccc1)c1ccc2c(c1)N(Cc1ccccc1)C(=O)c1ccccc1S2(=O)=O	0.0	1.5%
46	O=[N+]([O-])c1ccc(Nc2nc(NCCN3CCOCC3)nc(Nc3ccc(Cl)cc3)n2)cc1	0.2	-0.8%
47	COc1ccc(-n2c(=O)c3sc4ccccc4c3n(CC(=O)N3CCCC3)c2=O)cc1	-0.4	1.2%
48	O=c1cc(-c2ccccc2)nc(SCc2nc(-c3ccccc3Cl)no2)[nH]1	0.9	0.4%
49	COC(=O)c1c(NC(=O)c2nc(SC)ncc2Cl)sc2c1CCCC2	0.6	4.1%
50	Cn1c(=O)n(-c2ccc(Br)cc2F)c(=O)c2sc3ccccc3c21	-0.7	2.1%
51	CCOc1ccc(NC(=O)CSc2nc(-c3cccs3)cc(C(F)(F)F)c2C#N)cc1	-1.1	-1.0%
52	Cc1ccc(CNC(=O)c2cccc(Nc3nc4ccccc4n4nnnc34)c2)cc1	-0.3	11%
53	COc1ccc2c(c1)c1c(c(=O)n(Cc3ccccc3)c(=O)n1CC(=O)Nc1ccccc1OC)n2C	-0.2	1.5%
54	CC(C)CNc1ncnc2c1nnn2C	1.1	22%
55	CC(=O)N1c2ccc(S(=O)(=O)NCC3CCC(C(=O)Nc4cccc(C)c4)CC3)cc2CC1C (stereo not drawn)	0.2	0.4%
56	CCc1ccc(OCC(=O)NC(Cc2c[nH]c3ccccc23)C(=O)O)cc1 (stereo not drawn)	1.6	1.9%
57	Cc1ccc(Cn2c(C)c3cnn(CC(=O)N4CCN(c5cc(C)ccc5C)CC4)c(=O)c3c2C)cc1	0.5	1.1%
58	CCOc1ccc(NC(=O)c2cc3cc4ccc(C)cc4nc3o2)cc1	-0.2	1.4%
59	COC(=O)c1ccc(OC)c(CN2C(=O)N(c3ccc(C(C)=O)cc3)S(=O)(=O)c3ccccc32)c1	0.2	0.0%
60	COC(=O)c1c(NC(=O)CCCOc2cccc(C)c2)sc2c1C(C(=O)OC)CC2 (stereo not drawn)	3.4	0.2%

Sorted by count of non-hydrogen atoms (ascending): part of the list above
#	canonical_smiles	TRPML1 agonist	PINK1 modulator
56	CCc1ccc(OCC(=O)NC(Cc2c[nH]c3ccccc23)C(=O)O)cc1 (stereo not drawn)	1.6	1.9%
60	COC(=O)c1c(NC(=O)CCCOc2cccc(C)c2)sc2c1C(C(=O)OC)CC2 (stereo not drawn)	3.4	0.2%
57	Cc1ccc(Cn2c(C)c3cnn(CC(=O)N4CCN(c5cc(C)ccc5C)CC4)c(=O)c3c2C)cc1	0.5	1.1%

Continuation.
#	canonical_smiles	TRPML1 agonist	PINK1 modulator
61	COc1ccc(OC)c(S(=O)(=O)Nc2cccc(-c3ccc(N4CCCCC4)nn3)c2)c1	0.9	0.3%
62	CC(C)c1ccc(NC(=O)C2CCN(c3nc(-c4ccc(C(C)C)cc4)no3)CC2)cc1	1.5	1.3%
63	COc1cc(OC)c(/C=C/c2cc3ccccc3c[n+]2C)c(OC)c1	-0.2	11µM*
64	Cc1ccc(CSc2nnc([C@@H](N)C(C)C)o2)cc1	0.6	0.4%
65	Cc1cc(Cl)ccc1NC(=O)C1CCN(S(=O)(=O)c2ccc3[nH]c(=O)ccc3c2)CC1	0.3	-3.8%
66	COc1ccc(CSc2nc3ncccc3[nH]2)cc1	-0.2	0.0%
67	COc1ccc(NC(=O)c2c(NC(=O)c3cccc(C)c3)sc3c2CCC3)cc1	-0.3	1.4%
68	CCc1nn2c(=O)cc(COC(=O)CNC(=O)COc3ccc(C)cc3)nc2s1	-0.4	1.8%
69	Cc1cccc(C)c1NC(=O)c1sc(-n2nc(C)c(Cc3ccc4c(c3)OCO4)c2C)nc1C	-0.1	-0.8%
70	CCOc1ccc(CNC(=O)CCCn2nc(C)c3sc4ccccc4c3c2=O)cc1	-0.3	-0.4%
71	COc1cc(OC)c(NC(=O)C(c2ccccc2)N2Cc3ccccc3C2=O)cc1Cl (stereo not drawn)	0.5	?
72	COC(=O)c1c(N)n(-c2ccc(OC)c(OC)c2)c2nc3ccccc3nc12	0.1	-5.2%
73	O=C(CSc1nc(-c2ccc(F)cc2)[nH]c1-c1ccccc1)NCC1CCCO1 (stereo not drawn)	4.6	-1.6%
74	Cc1ccc(NC(=O)c2c(C)oc3ncnc(N4CCCCC4)c23)c(C)c1	0.5	?
75	COc1ccccc1C(=O)NC1(C(F)(F)F)C(=O)Nc2c1c(=O)[nH]c(=O)n2-c1ccc(F)cc1 (stereo not drawn)	0.6	0.1%
76	Cc1cc(C)cc(Nc2cc(-c3ccccc3)nc(C)n2)c1	2.9	7.5%
77	COc1cc(NC(=O)c2c(-c3ccc(C)cc3)nnc3ccccc23)cc(OC)c1OC	1.9	-0.9%
78	Cc1ccc(S(=O)(=O)c2cn(Cc3ccccc3)c3cc(N4CCOCC4)c(F)cc3c2=O)cc1	-0.5	0.9%
79	CCCC(=O)Nc1cc(C)c(O)c(-c2nc3ncccc3o2)c1	-0.2	0.7%
80	CCOc1ccc(C(=O)N(Cc2sccc2C)C2CCS(=O)(=O)C2)cc1 (stereo not drawn)	1.6	-0.1%
81	Cc1cccc(C(=O)NC2=NC(c3ccc(Cl)cc3)CC(=O)N2)c1 (stereo not drawn)	4.3	-15%
82	CCc1ccc(CNC(=O)c2c(C)oc3ncnc(N4CCOCC4)c23)cc1	3.6	22%
83	O=C(Nc1cccc(Cl)c1)c1ccc2nc(Cc3ccccc3)oc2c1	2.7	-1.6%
84	COc1ccc(CNC(=O)c2ccc3c(c2)N(Cc2ccccc2F)C(=O)c2ccccc2S3(=O)=O)cc1	-0.3	0.5%
85	CN(C)S(=O)(=O)c1ccc2c(c1)N(CC(=O)NCc1ccc(F)cc1)C(=O)CS2	-0.7	0.9%
86	Cc1ccc(-n2nc3c(N4CCC(C(=O)N(C)Cc5ccccc5)CC4)nnc(C)c3c2C)cc1	4.4	0.0%
87	Cc1cccc(OCC(=O)Nc2cc(C)c(O)c(-c3nc4ccccc4o3)c2)c1	-0.4	1.0%
88	Cc1cc(C)cc(NC(=O)CN2C(=O)CSc3ccc(S(=O)(=O)N4CCCC4)cc32)c1	0.3	0.2%
89	Cc1cccc(N2C(=O)CS(=O)(=O)C23C(=O)N(C)c2ccccc23)c1 (stereo not drawn)	0.1	-4.6%
90	O=C(c1ccc(F)cc1)n1nc(-c2ccc(Cl)cc2)nc1NCc1ccco1	2.8	2.1%
91	CCOc1ccc(C(=O)NCc2ccc3c(c2)CCN3C(=O)c2ccc(C)cc2)cc1OCC	3.2	4.3%
92	Clc1ccc(-c2nc3c4cnn(-c5ccccc5Br)c4ncn3n2)c(Cl)c1	0.4	-1.0%

A portion of the library, so the mix of outcomes need not match the whole.
